Bead autofluor – counter-screen for toxin protease inhibitors: compound fluorescence; AID 624483; fluorescence intensity (no concentration beside the values); compound autofluorescence counterscreen, microsphere flow cytometry; hits give high values; actives 3.1% (n = 360,000);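 active = at least 3 SD above the mean of all compounds, about 16000 in these data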;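 note: 100 nL of 1 mM stock went into each well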
BJeLR lethal – kills HRASV12-expressing BJeLR cells | inhibition, % (test concentration not listed) | actives 0.17% (n = 300,000) | BJeLR (HRASV12) viability, CellTiter-Glo ATP luminescence, 48 h; reference of the scale not given here | AID 1554;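 active = replicate mean above 50%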;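 note: 50 nL library stock added to about 25 µL; numbers are from one replicate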
PrP UTR inh – inhibition of PrP 5' UTR reporter expression | cell-based PrP 5' UTR mRNA reporter, plate reader | inhibition, % (no concentration beside the values) | actives 0.35% (n = 340,000);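 active = every replicate at 50% or more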;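 note: 0 = median of the neutral control wells; tested in H4 reporter cells; numbers are from one replicate; inactives centre near -14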
* marks the source's active call; other numbers are inactive results.

Screening CCn1cc(C(=O)O)c(=O)c2cnc(N3CCNCC3)nc21 returned BJeLR lethal 4.
CC1(C)C2CC[C@]3(C)[C@H](C(=O)C=C4[C@@H]5C[C@@](C)(C(=O)O)CC[C@]5(C)CC[C@]43C)[C@@]2(C)CC[C@@H]1O[C@H]1O[C@H](C(=O)O)[C@@H](O)[C@H](O)[C@H]1O[C@@H]1O[C@H](C(=O)O)[C@@H](O)[C@H](O)[C@H]1O (stereo partly specified) was read as Bead autofluor 3336.
`NC(N)=O` gave Bead autofluor 6154 and BJeLR lethal -14.
For C/C=C/C(=O)N(CC)c1ccccc1C the results were Bead autofluor 6013 and PrP UTR inh 0.
Screening Cc1c(C(=O)O)c(O)cc2c1C(=O)c1c(O)c([C@@H]3O[C@H](CO)[C@@H](O)[C@H](O)[C@H]3O)c(O)c(O)c1C2=O returned Bead autofluor 4004 and PrP UTR inh -7.
For COc1cc(-c2oc3cc(O)cc(O)c3c(=O)c2O[C@@H]2O[C@H](COC3O[C@@H](C)[C@H](O)[C@@H](O)[C@H]3O)[C@@H](O)[C@H](O)[C@H]2O)ccc1O (stereo partly specified) the results were Bead autofluor 3192 and PrP UTR inh 5.
For N[C@@H](Cc1c[nH]c2ccc(O)cc12)C(=O)O the results were Bead autofluor 4245 and PrP UTR inh 3.
For Oc1ccc2c(c1)OCC1(O)Cc3cc(O)c(O)cc3C21 (stereo unspecified) the results were Bead autofluor 5732 and PrP UTR inh -5.
Screening Oc1cc2c(cc1O)[C@H]1c3ccc(O)c(O)c3OC[C@@]1(O)C2 returned Bead autofluor 3572 and PrP UTR inh -22.
`O=c1oc2c(O)c(O)cc3c(=O)oc4c(O)c(O)cc1c4c23` gave Bead autofluor 4442 and PrP UTR inh -12.
`COc1cc([C@@H]2Oc3cc(C4Oc5cc(O)cc(O)c5C(=O)[C@H]4O)ccc3O[C@H]2CO)ccc1O` (stereo partly specified) gave Bead autofluor 4438 and PrP UTR inh -68.

At a glance, four of the compounds above.
For Oc1ccc2c(c1)OCC1(O)Cc3cc(O)c(O)cc3C21 (stereo unspecified) the results were Bead autofluor 5732 and PrP UTR inh -5.
Screening Oc1cc2c(cc1O)[C@H]1c3ccc(O)c(O)c3OC[C@@]1(O)C2 returned Bead autofluor 3572 and PrP UTR inh -22.
`O=c1oc2c(O)c(O)cc3c(=O)oc4c(O)c(O)cc1c4c23` gave Bead autofluor 4442 and PrP UTR inh -12.
`COc1cc([C@@H]2Oc3cc(C4Oc5cc(O)cc(O)c5C(=O)[C@H]4O)ccc3O[C@H]2CO)ccc1O` (stereo partly specified) gave Bead autofluor 4438 and PrP UTR inh -68.

An excerpt from above in order of number of heavy atoms, low to high.
`NC(N)=O` gave Bead autofluor 6154 and BJeLR lethal -14.
For C/C=C/C(=O)N(CC)c1ccccc1C the results were Bead autofluor 6013 and PrP UTR inh 0.
Screening CCn1cc(C(=O)O)c(=O)c2cnc(N3CCNCC3)nc21 returned BJeLR lethal 4.

An excerpt. The share of hits here may be higher or lower than overall.
